# BJeLR lethal: MLPCN primary cell-based screen for lethality selective to Ras in HRASV12 cells; inhibition, % (concentration not given with the values); BJeLR (HRASV12) viability, CellTiter-Glo ATP luminescence, 48 h; reference of the scale not given here; AID 1554, 2009; 0.17% of 300,000 active;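 active = replicate mean above 50%; inconclusive = above 50% but judged a plate artefact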;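 also: 50 nL library stock added to about 25 µL; numbers are from one replicate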
# Sa ugtP lethal: growth inhibition of ugtP-null S. aureus, primary screen, RN4220 ugtP deletion, OD600 | 16 h; some inactives read as strong as hits | growth inhibition, % (no concentration beside the values) | 0.54% of 330,000 active;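 active = z-score under -3 and OD600 up to 0.15 on both plates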;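 also: plate controls were untreated wells for no effect and antibiotic for full effect; wells of about 80 µL received 100 nL stock; the first replicate is given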
# PrP UTR inh: inhibition of PrP 5' UTR reporter expression. cell-based PrP 5' UTR mRNA reporter, plate reader. inhibition, % (concentration not given with the values). 0.35% of 340,000 active. AID 488862, 2010;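 active = every replicate at 50% or more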;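 also: 0 = median of the neutral control wells; tested in H4 reporter cells; numbers are from one replicate; inactives centre near -14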
# Mtb hypoxia inh: PubChem AID 1159583. M. tuberculosis hypoxia-regulated fluorescent reporter, fluorescence. fluorescence inhibition, % (test concentration not listed). 0.1% of 300,000 active;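 active = 35 to 45% if threefold the growth effect, above 45% if 1.5-fold the growth effect; inactive = the rest, general growth blockers included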;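 also: wells of about 50 µL received 100 nL stock; 0% = vehicle wells and 100% = reference inhibitor wells; whole bacteria with a GFP reporter of the hypoxia response; strong numbers were not always called active; many hits fall short of the cut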
# Autofluor counter: flagged as autofluorescent in microsphere protease counterscreen | compound autofluorescence counterscreen, microsphere flow cytometry; stronger effect = higher value | fluorescence intensity (test concentration not listed) | 3.1% of 360,000 active | AID 624483;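 active = at least 3 SD above the mean of all compounds, about 16000 in these data; inconclusive = too few beads counted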;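 also: 100 nL of 1 mM stock went into each well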
# RN4220 kill: growth inhibition of S. aureus RN4220, primary screen, OD600; 16 h; inhibition, % (concentration not given with the values); 0.33% of 330,000 active;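 active = z-score of -3 or lower and OD600 up to 0.18 on both plates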;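 also: plate controls were untreated cells for no effect and reference antibiotic for full effect; stock transfer was 100 nL into about 80 µL; one replicate is shown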
# Mtb hypoxia inh growth: recorded beside Mtb hypoxia inh, whose call it bears; growth inhibition, %; measured here: M. tuberculosis growth (absorbance);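 0% = vehicle and 100% = reference antibiotic; read after six days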
# The depositor's hits bear a star; ? = inconclusive; nt = no result given.
SMILES,BJeLR lethal,Sa ugtP lethal,PrP UTR inh,Mtb hypoxia inh,Mtb hypoxia inh growth,Autofluor counter,RN4220 kill
COC(=O)c1sccc1NC(=O)Cn1cnc2c1c(=O)n(C)c(=O)n2C,-3,-1,-13,-2,8,3569,-0.7
NC(=O)c1cccc2c1-c1ccccc1C2=NNC(N)=S,nt,-3,nt,8,-1,nt,0.2
COC(=O)c1ccc(C(=O)Nc2cc(Cl)ccc2Cl)cc1NC(=O)c1ccc(N(C)C)cc1,2,-3,-8,3,1,6211,2.1
O=C1c2ccccc2C(Nc2ccc(S(=O)(=O)N3CCCCC3)cc2)N1c1ccccn1 (configuration not stated),-3,nt,6,nt,nt,4242,nt
CCOC1OC(C(N)=O)=CC(C)C1CCCO (configuration not stated),nt,-3,nt,-3,-6,nt,0.3
O=C(Nc1ccc2c(c1)OCO2)N1CCCC1,7,-16,-47,1,2,2799,-5.8
COCCCn1c(SC(C)C(=O)NC2CC2)nc2ccccc2c1=O (configuration not stated),1,9,-2,4,2,4054,2.7
CCN(CC)S(=O)(=O)c1ccc(NC2CCCc3ccccc32)nc1 (configuration not stated),3,-10,-29,0,7,3925,-0.3
COc1ccc(C(=O)Nc2ccc(NC(=O)c3ccccn3)cn2)cc1,-14,-9,-19,-2,10,5370,1.3
CN(c1ccccc1)c1ccc([N+](=O)[O-])c2nonc12,6,22,-20,11,14,4336,13

# Record cards, as listed above.
# Profile of O=C(Nc1ccc2c(c1)OCO2)N1CCCC1 : BJeLR lethal: 7; Sa ugtP lethal: -16; PrP UTR inh: -47; Mtb hypoxia inh: 1; Mtb hypoxia inh growth: 2; Autofluor counter: 2799; RN4220 kill: -5.8
# Profile of O=C1c2ccccc2C(Nc2ccc(S(=O)(=O)N3CCCCC3)cc2)N1c1ccccn1 (configuration not stated) : BJeLR lethal: -3; Sa ugtP lethal: nt; PrP UTR inh: 6; Mtb hypoxia inh: nt; Mtb hypoxia inh growth: nt; Autofluor counter: 4242; RN4220 kill: nt

# Continuation.
SMILES,BJeLR lethal,Sa ugtP lethal,PrP UTR inh,Mtb hypoxia inh,Mtb hypoxia inh growth,Autofluor counter,RN4220 kill
COC(=O)C(Cc1ccccc1)NC(=O)CCCC(=O)NCc1cccc(OC)c1 (configuration not stated),0,1,-14,-3,-2,3986,4.2
Cc1ccc(N(C(=O)c2csnn2)C(C(=O)NC2CCCCC2)c2ccccn2)c(C)c1 (configuration not stated),9,nt,-14,nt,nt,3791,nt
COc1ccc(S(=O)(=O)N2CCCCCC2)cc1C(=O)N(C)Cc1ccco1,14,-1,-10,-15,-4,6074,0.3
CCCSc1nc2[nH]ncc2c(=O)[nH]1,-16,10,1,-2,5,2077,-1.1
O=C(O)/C=C\C(=O)Nc1ccccc1C(=O)NC1CCCCC1,4,0,-1,-6,-5,4533,3.5
C#CCOc1ccc(C2C3=C(CCCC3=O)N(CC(=O)O)C3=C2C(=O)CCC3)cc1Br,-13,14,-18,4,2,3518,0.3
CC(=O)Nc1nnc(S(=O)(=O)N2CCN(c3ccc(Cl)cc3[N+](=O)[O-])CC2)s1,5,6,3,-3,-1,4378,-0.3
O=C(NC1CCCC1)C(c1c(F)cccc1Cl)N(C(=O)c1csnn1)C1CC1 (configuration not stated),-1,1,-19,10,2,3451,3.7
O=C(CN1C(=O)C2(OCCO2)c2ccccc21)c1ccc(F)cc1,0,3,nt,5,-1,9814,3.1
CC(=NNC(=O)c1ccc(C)nc1)c1ccc2c(c1)CCCC2,nt,1,nt,8,-8,nt,5.7
Cc1cc(=O)[nH]c(SCC(=O)Nc2c(C)n(C)n(-c3ccccc3)c2=O)c1C#N,nt,0,-1,7,6,3974,-1.9
Cc1nnc(NC(=O)CCC(=O)N2CCN(CCOc3cccc4ccccc34)CC2)s1,-3,2,nt,-1,7,3805,6.2
Cc1nn(CC(=O)NCC2CCCO2)c(=O)c2ccccc12 (configuration not stated),-7,6,-2,nt,nt,3729,3.5
CN1C(=S)SC(N(O)C=C2C=CC(=O)C=C2)C1(C)C (configuration not stated),1,-5,-4,-22,-11,3176,1.8
O=C(NCCS(=O)(=O)N1CCN(c2cccc(Cl)c2)CC1)c1cc(=O)c2ccccc2o1,0,-4,-11,3,12,5692,-2.3
N/C(Cc1cccc2ccccc12)=N\OC(=O)c1cccs1,10,nt,-15,nt,nt,2261,nt
COC(=O)c1c(-c2ccccc2)nn(-c2ccccc2)c1C(=O)OC,14,14,-4,7,-1,3837,2.0
COc1c(O)ccc(C=NNC(=O)c2ccc3c(c2)OCCO3)c1[N+](=O)[O-],nt,2,nt,0,-5,nt,1.0
COc1ccccc1CNc1cc(-c2ccccc2)ccc1OC,12,78,-9,15,-3,2510,-10
Cc1ccc(-c2noc(C3CCN(S(C)(=O)=O)CC3)n2)o1,-3,2,-18,3,7,9766,2.2
CC(=O)c1cccc(Oc2ncccn2)c1,-9,3,5,-2,3,3439,-0.7
O=C1NC(=Nc2ccccc2)SC1Cc1cccc(Cl)c1Cl (configuration not stated),4,-7,-86,3,-10,2133,3.1
Cc1c(NS(=O)(=O)c2cccc(C(=O)NCc3ccc(Cl)cc3)c2)c(=O)n(-c2ccccc2)n1C,-13,18,-16,9,9,3214,4.8
CCCOc1ccc(C2c3c(oc4ccccc4c3=O)C(=O)N2CCN(CC)CC)cc1OC (configuration not stated),-3,-4,-17,-2,4,3640,-4.7
COC(=O)c1ccsc1NC(=O)CCS(=O)(=O)c1ccc(Cl)cc1,0,3,-9,6,10,?,6.4
O=C(C1CCN(S(=O)(=O)Cc2ccccc2)CC1)N1CCN(c2ncccn2)CC1,-1,7,-8,7,3,4368,1.7
Cc1cc(C(=O)N/N=C/C=C/c2ccc(Br)cc2)n[nH]1,3,nt,-24,nt,nt,5747,nt
COc1ccc(N2C(=O)CN(Cc3cc(OC)c(OC)c(OC)c3)C2=S)cc1,9,7,-69,-1,19,4735,2.2
O=C(Nc1ccccc1)N(CCN1CCOCC1)Cc1cccc(Cl)c1,-2,6,-22,3,9,7478,6.0
COc1cccc(C2=Nc3cccc4cccc(c34)N2)c1,18,5,-16,6,8,9500,1.6
CCOC(=O)c1ccc(NC(=O)c2c(NC(=O)CCC(=O)O)sc3c2CCCCC3)cc1,7,-4,-26,1,8,4509,4.9
CCOC(=O)C1=C(C)N=c2sc(=Cc3cccc([N+](=O)[O-])c3O)c(=O)n2C1c1cc(OC)c(OC)c(OC)c1 (configuration not stated),nt,14,nt,16,-4,nt,0.2
CCCCc1cc(=O)oc2cc(OCC(=O)NCc3ccccn3)c(Cl)cc12,0,9,-11,-15,-18,5457,2.7
COc1ccccc1C1CC(c2cccs2)=NN1C(=O)CCC(=O)O (configuration not stated),8,5,-12,-3,-2,5491,3.9
Cc1noc(C)c1CSCC(=O)N(CCC(C)C)c1c(N)n(Cc2ccccc2)c(=O)[nH]c1=O,5,5,-3,2,7,7098,1.0
CN(C)/C=N/c1cc(=O)n(C)c(=O)n1CC1CC1,-6,nt,-15,nt,nt,4020,nt
Nc1nc2c3ccccc3nc(Cc3ccccc3)n2n1,7,5,-10,3,6,7898,3.9
CCN=C(Nc1ccc2c(c1)OCO2)SC1CC(=O)N(c2ccc(OC)cc2)C1=O (configuration not stated),1,13,-13,4,5,2810,1.2
COc1ccccc1C1=NN(C2=NN=C(N)Cc3ncnn32)C(O)(C(F)(F)F)C1 (configuration not stated),1,3,-30,4,9,3256,4.1
O=C(CSc1n[nH]c(=O)[nH]c1=O)c1ccccc1[N+](=O)[O-],-10,9,-20,9,14,6279,6.2
Cc1cc(C(=O)Nc2ccc(N3CCOCC3)cc2)c2ccccc2n1,6,-6,-16,10,20,5736,4.3
COc1ccc(/C=C/C(=O)OCC(=O)NC2CCCC2)cc1,nt,9,-18,23,45,6330,3.4
CCOC(=O)c1c(CS(=O)(=O)c2ccccc2)n(C)c2cc(Br)c(O)c(CN(C)C)c12,2,6,-11,3,9,3485,5.8
O=c1cc(N2CCCCC2)c(-c2ccccc2)nn1Cc1ccccc1Cl,5,4,-10,nt,nt,3631,-5.8
O=C(O)c1nc2nc(Cl)c(Cl)nc2[nH]1,-10,-4,-16,-9,-4,3610,7.8
O=C(NCCOc1ccccc1F)C1CC(=O)N(Cc2ccccc2)C1 (configuration not stated),nt,3,-19,8,8,3037,3.7
O=C(NC1CCCCC1)C(c1cccs1)N(Cc1cccs1)C(=O)c1ccco1 (configuration not stated),12,-2,-21,12,8,5450,3.2
CC1(C)CC(=O)C2=C(C1)NC(=S)C(C#N)C21CCCCC1 (configuration not stated),3,1,-2,-4,5,nt,5.8
COc1ccc(Cn2nnnc2CN(Cc2cc3ccc(C)cc3[nH]c2=O)C2CCCC2)cc1,-16,-4,-5,3,4,10841,3.6
O=C(Nc1ccc(O)cc1C(=O)O)c1ccc(NC(=O)c2ccco2)cc1,nt,2,-7,5,-4,3604,2.4
# Additional records follow.
SMILES,BJeLR lethal,Sa ugtP lethal,PrP UTR inh,Mtb hypoxia inh,Mtb hypoxia inh growth,Autofluor counter,RN4220 kill
Cc1cc(C)c(C)c(OCC(=O)NCCN(C)C)c1,7,2,-15,10,-2,3091,-4.0
CC1CN(C(=O)c2nn(C)cc2[N+](=O)[O-])CC(C)O1 (configuration not stated),6,-11,-20,nt,nt,2806,1.6
O=C(CCS(=O)(=O)c1cccc2nonc12)Nc1ccc(Br)cc1,12,-3,-54,20,19,5324,2.3
CCC[N+]1(CC#CC(O)(c2ccccc2)C2CCCCC2)CCCCC1 (configuration not stated),5,4,-12,9,10,4298,2.4
COc1ccc(NS(=O)(=O)c2cc(NC(=O)c3cncc(Br)c3)ccc2OC)cc1,nt,-2,12,1,2,6710,5.7
CCn1cc(C(=O)OCC(=O)c2cc(C)n(-c3ccccc3)c2C)c(=O)c2ccc(C)nc21,-4,4,-33,-2,3,2610,8.1
N=c1scc(-c2ccccc2)n1N=Cc1ccco1,nt,10,nt,12,10,nt,1.1
Cc1cccc(-c2noc(CCC(=O)NCc3ccccc3)n2)c1,-9,15,-13,3,-5,10345,0.4
C=CCn1c(SCC(=O)NC2CCCCC2)nnc1-c1cccnc1,-15,13,-1,12,-33,4637,4.3
Cc1c(C(=O)Nc2c(C)n(C)n(-c3ccccc3)c2=O)oc2ccc(Cl)cc12,2,11,-15,1,0,4262,-0.1

# Reprinted at random: two compounds from above, in no set order.
SMILES,BJeLR lethal,Sa ugtP lethal,PrP UTR inh,Mtb hypoxia inh,Mtb hypoxia inh growth,Autofluor counter,RN4220 kill
CN(c1ccccc1)c1ccc([N+](=O)[O-])c2nonc12,6,22,-20,11,14,4336,13
O=C(C1CCN(S(=O)(=O)Cc2ccccc2)CC1)N1CCN(c2ncccn2)CC1,-1,7,-8,7,3,4368,1.7

# Further results:
SMILES,BJeLR lethal,Sa ugtP lethal,PrP UTR inh,Mtb hypoxia inh,Mtb hypoxia inh growth,Autofluor counter,RN4220 kill
COc1ccc(C(=O)/C=C/C(=O)N(CC(=O)NC2CCCCC2)Cc2ccccc2OC)c(O)c1,51*,-12,-21,-5,7,4562,-3.7
CCCN(CCC)c1nc2c(C)cccn2c(=O)c1/C=C1/SC(=S)N(Cc2ccco2)C1=O,19,nt,-36,nt,nt,25555*,nt
Cc1ccc(CN2CCN(Cc3cnc(C)s3)CC2CCO)cc1 (configuration not stated),-2,16,-62,14,-3,4475,8.9
Cc1occc1-c1nc(-c2ccncc2)no1,10,-6,-12,-7,0,21018*,-1.3
CC(C)Oc1ccc(CSc2nnc3n(C)c(=O)c4c5c(sc4n23)CCCC5)cc1,2,-3,-11,-4,0,24669*,-4.3
CCC1(c2ccc(F)cc2)NC(=O)N(CC(=O)N(C)C2CCS(=O)(=O)C2)C1=O (configuration not stated),0,0,-17,1,5,5972,2.0
COc1ccc(-n2c(SCC(=O)Nc3cc(C)on3)nc3c(c2=O)SCC3)cc1OC,11,7,-2,0,11,7227,1.7
COc1cc(OC)cc(C(=O)N[C@H](C(=O)N2CCc3ccccc32)C(C)C)c1,4,4,-10,-8,-6,10354,-0.9
N=c1c2c(n(Cc3cccc(Cl)c3)c3c1CCC3)CCCC2,-23,11,-6,8,14,10528,-11
COc1ccc(NC(=O)Nc2ccc3c(c2)C(=O)N([C@H](C)CO)C[C@H](C)[C@@H](CN(C)S(=O)(=O)c2ccc(OC)cc2)O3)cc1,nt,-1,-17,3,5,3060,-12
CCOC(=O)c1[nH]c(C)c(/C(O)=C2\C(=O)C(=O)N(CCCN(C)C)C2c2cccnc2)c1C (configuration not stated),-1,-3,2,9,-2,3176,-17
COc1ccccc1CN1C[C@@H]2C[C@@H](C3=Cc4cccc(OC)c4OC3)N3CCC[C@@]23C1=O,-4,0,-11,5,3,2884,1.5
